Screens: PubChem BioAssay, Broad Institute
Calb FLC: C. albicans growth modulation with fluconazole. C. albicans CaCi-2 (fluconazole-resistant clinical isolate) + fluconazole, Alamar Blue growth, 48 h. growth inhibition, % (test concentration not listed). 300,000 compounds, 0.57% hits;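 active = most replicates above 75%; inconclusive = exactly half above 75%; inactive = most below 75%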;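 note: all wells also contain fluconazole at 8 µg/ml as a sub-toxic cotreatment; 0% = median of DMSO wells and 100% = median of geldanamycin control wells; wells of about 8 µL received 7.5 nL stock; the first replicate is given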
RanGTP-Impb inh: disruptors of Ran-importin-beta complex formation – biochemical, FRET, CFP-Ran, YFP-importin-beta, homogeneous, primary screen | 300,000 compounds, 1.1% hits | inhibition, % (no concentration beside the values) | AID 2216 | cell-free CFP-Ran/YFP-importin-beta FRET ratio;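 active = most replicates above 15%; inconclusive = exactly half above 15%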;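 note: 0% = DMSO wells and 100% = Ran loaded with GDP instead of GTP; wells of about 40 µL received 100 nL stock; the first replicate is given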
AF4-AF9 inh: MLL-AF4/AF9 protein interaction inhibition | P42568 | AlphaScreen, biotin-AF4 peptide binding to FLAG-AF9 | inhibition, % at 10 µM | 350,000 compounds, 0.47% hits;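 active = every replicate reaching a set inhibition limit, whatever the replicate mean, cut at about 25% in these data; inconclusive = mean inhibition reaches that limit but some replicates miss it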;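 note: 0% = plate neutral control median and 100% = total signal loss; the record names both 10 and 1 µM as test concentration; the first replicate is given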
Target sequence (P42568 whole entry, looked up): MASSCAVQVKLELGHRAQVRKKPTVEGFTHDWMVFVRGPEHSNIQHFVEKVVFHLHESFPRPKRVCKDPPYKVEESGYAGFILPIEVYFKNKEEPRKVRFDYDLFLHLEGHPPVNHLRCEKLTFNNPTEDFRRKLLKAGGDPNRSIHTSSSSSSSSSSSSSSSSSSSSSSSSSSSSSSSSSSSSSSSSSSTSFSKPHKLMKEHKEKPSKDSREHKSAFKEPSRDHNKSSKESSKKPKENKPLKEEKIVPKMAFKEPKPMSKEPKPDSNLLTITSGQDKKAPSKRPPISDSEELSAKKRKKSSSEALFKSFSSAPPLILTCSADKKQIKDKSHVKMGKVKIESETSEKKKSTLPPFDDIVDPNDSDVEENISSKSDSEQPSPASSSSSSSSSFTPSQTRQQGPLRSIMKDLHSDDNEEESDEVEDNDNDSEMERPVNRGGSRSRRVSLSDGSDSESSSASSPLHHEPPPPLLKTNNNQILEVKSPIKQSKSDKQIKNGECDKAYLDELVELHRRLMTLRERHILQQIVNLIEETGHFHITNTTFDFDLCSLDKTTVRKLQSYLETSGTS
Ecoli rRNA inh: inhibits bacterial ribosomal RNA function over humanized ribosomes; 350,000 compounds, 1.6% hits; E. coli WT GFP vs humanized-ribosome RFP mutants, fluorescence, 24 h; stronger effect = lower value; DMSO median 0, no signal -100; GFP signal change (wild-type ribosome), % (concentration not given with the values);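 active = significant combined selectivity score with lowered wild-type GFP, culture density cut under 30%, mutant RFP and density less affected; inactive = any of these conditions unmet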; note: one replicate is shown; some compounds called inactive have numbers as strong as hits
Beta apoptosis: beta cell apoptosis inhibition; AID 435005; 300,000 compounds, 0.8% hits; INS-1E cytokine-induced death, ATP luminescence, 48 h; percent of positive-control rescue, neutral wells zero; protection from apoptosis, % (no concentration beside the values);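 active = all replicates at 75% or more, or half of them and the mean; inconclusive = half reach 75% but not the mean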;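 note: 0% = cytokine-treated negative control wells and 100% = positive control rescue; higher means more ATP so stronger rescue from cytokine killing; wells of about 40 µL received 100 nL stock; the first replicate is given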
T cruzi repl: blocks replication of Trypanosoma cruzi; inhibition, % (test concentration not listed); 300,000 compounds, 1.4% hits; AID 1885; T. cruzi beta-gal in NIH3T3, luminescence, 90 h;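 active = mean inhibition across valid replicates above about 55%, limit read from the data; inconclusive = mean below that limit but half or more replicates reach it; inactive = mean below it, under half of replicates reach it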;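 note: signal also drops with host cell toxicity which is not excluded here; 0% = plate median of DMSO wells and 100% = zero luminescence signal; higher percent means less beta-gal luminescence so fewer parasites; stock transfer was 50 nL into about 50 µL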
ALR H2O2 inh: inhibitors of human sulfhydryl oxidase ALR. P55789. purified ALR, DTT oxidation, H2O2 HRP-luminol luminescence. inhibition, % (concentration not given with the values). 290,000 compounds, 3.8% hits. AID 485317;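 active = mean and each replicate at 75% or more; inconclusive = only one of the two met; inactive = neither met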;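 note: stock transfer was 7.5 nL into about 7.5 µL; 0% = neutral wells and 100% = wells with inactivated enzyme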
Target sequence (P55789 whole entry, looked up): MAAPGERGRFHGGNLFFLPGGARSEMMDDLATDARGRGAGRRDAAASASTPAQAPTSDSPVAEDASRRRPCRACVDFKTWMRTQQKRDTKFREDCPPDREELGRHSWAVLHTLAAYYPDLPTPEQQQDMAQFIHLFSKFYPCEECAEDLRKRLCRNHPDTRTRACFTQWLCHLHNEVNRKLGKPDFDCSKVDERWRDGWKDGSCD
FGF22 binding: shifts melting point of recombinant human FGF22 | calls only at 9.99 µM | 340,000 compounds, 1.5% hits | recombinant FGF22 thermal shift, SYPRO orange fluorescence; percent of sucrose octasulfate shift, DMSO zero | Q9HCT0;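 active = melting point raised past a set limit in the mean and every replicate; inconclusive = no clear call; three in four hits are not shown here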
Target sequence (Q9HCT0 whole entry, looked up): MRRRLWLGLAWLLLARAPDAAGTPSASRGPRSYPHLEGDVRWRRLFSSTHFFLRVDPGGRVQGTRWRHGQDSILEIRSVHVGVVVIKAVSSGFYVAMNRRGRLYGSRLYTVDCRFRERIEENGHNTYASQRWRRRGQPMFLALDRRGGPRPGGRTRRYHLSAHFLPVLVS
Ecoli rRNA inh OD600: also measured in Ecoli rRNA inh; calls as there; OD600 change, %; measured here: OD600 growth;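 optical density of the mix in the first replicate; 0 = DMSO median and -100 = no signal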
Ecoli rRNA inh RFP: also measured in Ecoli rRNA inh; calls as there; RFP signal change, %; measured here: RFP humanized mutant strains;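 first replicate; 0 = DMSO median and -100 = no signal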
Numbers without * were called inactive; i = inactive; u = inconclusive; x = not tested or not shown; & = joins results of further samples. Some of the compounds tested; the hit share may differ from the screen's.

SMILES | Calb FLC | RanGTP-Impb inh | AF4-AF9 inh | Ecoli rRNA inh | Ecoli rRNA inh OD600 | Ecoli rRNA inh RFP | Beta apoptosis | T cruzi repl | ALR H2O2 inh | FGF22 binding
O=C(O)C(Cc1ccc(Cl)cc1)NS(=O)(=O)c1ccc(Cl)cc1 (stereo not drawn) | 14 | 4.4 | -3.4 | 4 | 5 | 4.1 | x | -16 | x | i
CC1CN(Cc2ccccc2)c2ccccc2NC1=S (stereo not drawn) | u | u | 7.3 | 13 | 9 | -2.0 | 4 | -21 | x | i
Cc1ccc2nc(-c3ccccc3)cc(C(=O)N(C)CC(=O)Nc3ccccc3Br)c2c1 | 3 | 2.6 | -62 | -10 | -4 | 6.0 | 9 | 47 | -4 | i
COc1ccc(-c2nnc(SCC(=O)c3cc(C)n(Cc4cccs4)c3C)o2)cc1 | 0 | -1.2 | x | x | x | x | -3 | 7 | 51 | x
Cc1ccc(S(=O)(=O)N2C(=O)C(c3ccccc3)SC2=Nc2ccccc2)cc1 (stereo not drawn) | 17 | 0.5 | x | x | x | x | -8 | -16 | 42 | x
Cc1cc(NC(=O)c2cccc(S(=O)(=O)N3CCCCC3)c2)no1 | -15 | u | -0.1 | -3 | -2 | 0.2 | -2 | -3 | -10 | i
CCN(/C=N/S(=O)(=O)c1ccc(Cl)cc1)CC | 3 | 5.5 | -0.3 | 9 | 10 | -1.5 | -5 | 2 | -30 | i
COc1ccc(S(=O)(=O)N(C)C[C@H]2Oc3ccc(NC(=O)Nc4ccc5c(c4)OCO5)cc3CC(=O)N([C@@H](C)CO)C[C@@H]2C)cc1 | x | x | x | -1&2 | 1&-13 | -1.0&0.7 | -8 | x | -3 | i
COc1ccc2oc(C(=O)OCC(=O)N3CCC(C)CC3)c(C)c2c1 | 3 | 2.9 | -2.9 | -26 | -30 | -2.4 | x | 2 | -8 | i
O=C(Nc1ccc(Br)c2ccccc12)c1ccc2ccccc2c1O | 19 | -18 | 3.3 | -58 | -79 | -20 | 50 | -11 | -7 | i
Cc1cc(-c2nn(-c3ccccc3F)cc2CNCCc2cnc[nH]2)c(C)s1 | 1 | -2.7 | 29* | 1 | -3 | 15 | -14 | 28 | -7 | i
Cc1cc(C)cc(NC(=S)N=Nc2c(O)n(C)c3ccc(S(=O)(=O)N4CCOCC4)cc23)c1 | 1 | -3.2 | 4.1 | 9 | 3 | -3.0 | 29 | 25 | -9 | i
CCOC(=O)C1=C(CC)Nc2ccccc2N=C1NC(=O)Cn1cnc2ccccc2c1=O | 7 | 7.5 | x | x | x | x | -9 | -1 | 0 | x
Cc1cc(C)cc(Nc2ccc([N+](=O)[O-])nc2[N+](=O)[O-])c1 | -11 | 3.6 | x | x | x | x | -2 | 67* | x | x
COc1ccc(-c2nc(CS(=O)(=O)CC(=O)NCc3cccc(F)c3)c(C)o2)cc1 | 1 | -1.8 | -2.1 | -6 | -9 | 0.1 | -5 | 4 | 97* | i
Cc1cc(N2C(=O)C(O)=C(C(=O)c3cc4ccccc4o3)C2c2cccc(Cl)c2)no1 (stereo not drawn) | u | 25* | 6.2 | -2 | -22 | -2.4 | 2 | -6 | x | i
CCN(CCCNC(=O)CCCn1c(=O)[nH]c2ccccc2c1=O)c1cccc(C)c1 | 6 | -5.4 | x | x | x | x | -2 | -1 | -15 | x
CC(=O)N1C(=O)C2(Nc3ccccc3N2)c2ccccc21 | -6 | 2.0 | x | x | x | x | 2 | 0 | 6 | x
CCOc1ccc(NC(=O)N2CCC(NC(=O)C(Cc3ccccc3OC)NC(C)=O)CC2)cc1 (stereo not drawn) | -2 | -0.4 | -2.1 | 3 | 1 | 0.2 | -1 | -18 | -2 | i
O=C(N/N=C1\CCCc2ccccc21)C(O)c1ccccc1 (stereo not drawn) | -14 | 0.4 | x | x | x | x | 1 | -14 | -15 | x
COc1ccc(Cc2nnc3n2N=C(c2cc4ccccc4o2)CS3)cc1OC | -34 | 0.3 | x | x | x | x | -7 | 8 | -5 | x
CCN(Cc1ccccc1)C(=O)CCS(=O)(=O)c1ccc2c(c1)oc(=O)n2C | 2 | 0.8 | -0.8 | 4 | 7 | 0.4 | 1 | 7 | 6 | i
Cc1cnc(C(=O)OCC(=O)NC23CC4CC(CC(C4)C2)C3)cn1 | 51 | 2.7 | 1.9 | x | x | x | 2 | -1 | 0 | i
COc1cccc(N2CCN(C(=O)CN(c3ccc(C)cc3)S(=O)(=O)c3c(C)n[nH]c3C)CC2)c1 | -2 | 1.6 | 10 | -1 | -7 | -3.1 | 0 | -6 | x | i
Cc1nn(-c2ccccc2)c2sc(C(=O)OC3CCOC3=O)cc12 (stereo not drawn) | 5 | 1.4 | x | x | x | x | -5 | -3 | 2 | x
COc1cccc(-c2cc(C(=O)N3CCN(Cc4ccc5c(c4)OCO5)CC3)on2)c1 | -12 | 2.2 | -1.1 | -13 | -21 | 3.4 | 2 | 13 | -3 | i
Cc1ccc(/C=N\n2c(-c3ccccc3)n[nH]c2=S)s1 | 1 | 8.8 | x | x | x | x | 1 | -2 | 0 | x
Cc1cccc(-c2noc(CNC(=O)c3ccoc3C)n2)c1 | 0 | 8.5 | 0.4 | -11 | -16 | -3.7 | 0 | 16 | 21 | i
CN(Cc1nc(-c2cnccn2)no1)Cc1n[nH]c2c1CCCCC2 | 0 | -1.2 | 2.2 | 17 | 6 | 6.3 | -9 | 1 | -2 | i
CC(C)NC(=O)N(C)C[C@H]1Oc2ccc(NC(=O)Nc3ccc4c(c3)OCO4)cc2C(=O)N([C@H](C)CO)C[C@@H]1C | x | x | -0.9&-6.8 | 2&2 | 8&9 | -2.2&-1.1 | -2 | x | -4 | i
CN(Cc1cccc(-n2cccn2)c1)Cc1cn(C)nc1-c1ccccc1F | -15 | -3.0 | 0.5 | x | x | x | -10 | 3 | -2 | i
c1cc2c3c(cccc3c1)NC1(CCCCCC1)N2 | 36 | -0.3 | x | x | x | x | x | 8 | -12 | x
Cc1cc[n+]2n1CC(O)C2 (stereo not drawn) | -12 | 0.4 | -4.0 | 24 | 10 | -0.2 | x | -4 | x | i
O=C(Nc1ncccc1O)c1ccc(Cl)c(S(=O)(=O)N2CCCCCC2)c1 | -24 | -2.3 | -14 | -13 | -21 | -2.0 | 1 | 9 | 3 | i
CCn1nc(CC(=O)Nc2ccc(-n3cnnn3)c(C)c2)c2ccccc2c1=O | -10 | 1.5 | x | -2 | -5 | -11 | 6 | 6 | -2 | x
Cc1nc(CN2CCN(Cc3nc(C(c4ccccc4)c4ccccc4)no3)CC2)cs1 | -14 | -0.9 | -0.1 | 0 | -1 | 3.2 | -6 | 2 | -1 | i
Cc1cc(C)c2nc(N3CCOCC3)c(C#N)cc2c1 | -2 | 24* | -1.0 | -13 | -14 | 1.3 | -8 | 5 | -3 | i
CCCOc1ccc2c(c1)C(=NN=C(N)N)c1cc(OCCC)ccc1-2 | 10 | 3.0 | 32* | -60 | -78 | -20 | 8 | 39 | -5 | i
O=[N+]([O-])c1ccc(CN2CCC(Cc3ccccc3)CC2)cc1 | -6 | 1.7 | 7.3 | 1 | 15 | 1.0 | 0 | 5 | 12 | i
CN(C(=O)CCNC(=O)N1CC(=O)Nc2ccccc21)C1CCCCC1 | -5 | 1.6 | -1.8 | -2 | -4 | -1.6 | -2 | -11 | 3 | i
O=S(=O)(NCCOc1ccccc1F)c1ccc(Cl)cc1F | x | x | 0.6 | -21 | -22 | 0.3 | 2 | x | 0 | i
N/C(=N\OC(=O)CCCOc1ccccc1)c1ccc(Br)cc1 | 5 | 0.7 | x | 8 | 5 | -1.2 | 7 | -1 | 4 | x
C=CCN(c1ccccc1)S(=O)(=O)c1ccc2c(c1)N(C(C)=O)CCO2 | 1 | 1.0 | 2.1 | -17 | -12 | 0.7 | 0 | 10 | 0 | i
COc1ccccc1NS(=O)(=O)c1cc(NC(=O)CCC(=O)c2cccs2)ccc1Cl | u | -1.5 | 5.4 | -16 | -12 | -7.3 | 6 | -7 | -8 | i
CCC1(c2ccccc2)NC(=O)N(CC(=O)Nc2ccccc2N2CCCC2)C1=O (stereo not drawn) | -1 | u | 8.1 | -9 | -7 | 3.6 | -6 | -6 | -16 | i
CC(=O)Nc1nc(C)c(C(C)=O)s1 | -1 | -0.7 | x | x | x | x | -3 | 9 | -3 | x
CCOCCCNC(=O)c1cn(CC)c2ccc(S(=O)(=O)N3CCCC3)cc2c1=O | -4 | 1.5 | 0.3 | 13 | -2 | 4.3 | -5 | -5 | -40 | i
NS(=O)(=O)c1cccc(NC(=O)c2cc3ccccc3o2)c1 | u | 0.6 | -1.6 | 8 | 20 | 3.9 | -2 | 0 | -2 | i
CN(C)S(=O)(=O)n1cc(/C=C(\NC(=O)c2ccccc2Cl)C(=O)NCCN2CCOCC2)c2ccccc21 | -14 | 2.7 | -1.9 | -1 | 18 | -1.6 | 8 | -5 | -2 | i
COc1ccc(S(=O)Cc2ccc(C(=O)NC3CC3)o2)cc1 (stereo not drawn) | 5 | 39* | 0.0 | 1 | 6 | -2.9 | -7 | -10 | -5 | i
Cc1ccc(C)c(OCc2nc3ccccc3[nH]2)c1 | 9 | -0.2 | 1.0 | -55 | -73 | -15 | 8 | 15 | -7 | i
COc1ccc(N2CCN(C(CNC(=O)c3ccco3)c3cccnc3)CC2)cc1 (stereo not drawn) | 0 | u | x | x | x | x | 2 | 42 | 89* | x
COc1ccc(-n2c(Cc3cccn3C)nnc2SCC(=O)Nc2ccc(F)cc2F)cc1 | 7 | 7.5 | -2.6 | 0 | -1 | 2.5 | -2 | -6 | 8 | i
Cc1nn(C(C)c2n[nH]c(=S)n2-c2cccc(Cl)c2)c(C)c1[N+](=O)[O-] (stereo not drawn) | -3 | 3.0 | x | x | x | x | 0 | -3 | 40 | x
COc1ccc2cc3cc(C(=O)NCCN4CCN(c5ccccc5F)CC4)oc3nc2c1 | 29 | 0.5 | x | x | x | x | 10 | 32 | 1 | x
COc1ccc(CCNS(=O)(=O)c2ccc3c(c2)CCCC3)cc1OC | x | x | -1.1 | -52 | -72 | -16 | 0 | x | -5 | i
C=CCCC(=O)Nc1nc(C)c(-c2csc(Nc3cc(Cl)ccc3OC)n2)s1 | -2 | -2.4 | x | 3 | 5 | 0.7 | -7 | -5 | -10 | i
CCC(=O)N1CCN(c2ccccc2NC(=O)COc2ccccc2Cl)CC1 | 14 | 0.0 | x | -49 | -76 | -16 | x | 14 | -8 | x
Cc1cc(-c2n[nH]c(=S)n2/N=C/c2ccccc2[N+](=O)[O-])n[nH]1 | -7 | -2.4 | x | x | x | x | -4 | 3 | 95* | x
Cn1nc(C(F)(F)F)c(C(=O)Nc2ccc(F)cc2F)c1Sc1ccc(Cl)cc1 | -6 | -0.1 | x | x | x | x | -2 | 29 | 5 | x
